Screening results (PubChem BioAssay)
Biofilm kill mix: mixture kills Candida albicans biofilm cells | C. albicans biofilm persisters + clotrimazole, fluorescence viability; primary screen in compound mixtures of four per well | inhibition, % at 7.6 µM | 120,000 tested, 0.02% active | AID 1242;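 active = inhibition above 30.3% in the primary screen of four-compound pools, then above 30% when the compound was retested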;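 also: compounds exposed to preformed 24 h biofilms for 48 h; the number belongs to the whole pool; some results filed as inactive read as strong as hits; inactives centre near 12; 0% = biofilm with clotrimazole alone and 100% = kill control; retested singly at about 60 µM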
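Incubation: 24 h biofilm formation, then 48 h compound exposure, 37 °C | Material: C. albicans biofilms | Buffer or medium: RPMI/MOPS medium, pH 7.0 | Measured by: 2-h Alamar Blue fluorescence, 535/590 nm excitation/emission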
Numbers without * were called inactive. Some of the compounds tested; count on the stated rates, not on these rows.

Start of the data: the first 7 compounds (preview)
SMILES | Biofilm kill mix
C/C(=N/NC(=O)c1ccc2c(c1)OCCO2)c1ccc([N+](=O)[O-])cc1 | 9
COc1cccc(CNc2nc(-c3cccnc3)nc3ccccc23)c1 | 18
CN(Cc1ccccc1)c1nc(N)nc(Cl)c1C=O | 18
CC(C)c1ccccc1NS(=O)(=O)N(C)C | 12
Nc1nnc(C(F)(F)F)s1 | 9
COc1ccc(CN(C(=O)c2cc3ccccc3oc2=O)C2CCS(=O)(=O)C2)cc1 (stereo unspecified) | 12
C/C(=N\O)c1ccc2c(c1)OCCO2 | 12

Results, from the start:
SMILES | Biofilm kill mix
C/C(=N/NC(=O)c1ccc2c(c1)OCCO2)c1ccc([N+](=O)[O-])cc1 | 9
COc1cccc(CNc2nc(-c3cccnc3)nc3ccccc23)c1 | 18
CN(Cc1ccccc1)c1nc(N)nc(Cl)c1C=O | 18
CC(C)c1ccccc1NS(=O)(=O)N(C)C | 12
Nc1nnc(C(F)(F)F)s1 | 9
COc1ccc(CN(C(=O)c2cc3ccccc3oc2=O)C2CCS(=O)(=O)C2)cc1 (stereo unspecified) | 12
C/C(=N\O)c1ccc2c(c1)OCCO2 | 12
COCCNC(=O)COC(=O)c1ccc(OCC(=O)Nc2ccccc2OC)c(OC)c1 | 15
COCCCNCCOCCOc1ccc(Cl)cc1C(C)(C)C | -5
CC(=O)NC1C(=O)N=C(SCC(=O)Nc2ccc(C(F)(F)F)cc2Cl)NC1=O (stereo unspecified) | -5
Cc1ccc(NC(=O)C2CC(=O)n3ncnc3N2)cc1C (stereo unspecified) | 12
O=C1C2C3C=CC(C4CC34)C2C(=O)N1/N=C/c1ccc(-c2cccc([N+](=O)[O-])c2)o1 (stereo unspecified) | 12
CCC(CO)NC(=O)c1ccccc1C(F)(F)F (stereo unspecified) | 0
COc1ccc(C=O)cc1OC(=O)C1(C)Cc2ccccc2C(=O)O1 (stereo unspecified) | 0
Cc1ccccc1CS(=O)(=O)c1ccc(C(=O)N2CCC(C)CC2)cc1[N+](=O)[O-] | 17
O=c1[nH]nc(-c2ccc(F)cc2)cc1Cc1ccccc1 | 14
CCOC(=O)c1ccc(CNC(=O)Cn2nnc(-c3cccc(C)c3)n2)o1 | 20
S=c1[nH]nc(-c2ccc3ccccc3n2)n1Cc1ccccc1 | 7
O=C(CC1C(=O)NCCN1Cc1cccc(Oc2ccccc2)c1)NCCc1ccncc1 (stereo unspecified) | 21
O=C(c1ccco1)N1CCCN(Cc2nc(-c3cccs3)no2)CC1 | -4
CC(=C/c1ccc(C(C)C)cc1)/C=N/NC(=O)c1ccncc1 | 14
Cc1ccc(S(=O)(=O)N2CCC(=O)N(C(COCc3ccc(Cl)cc3)Cc3ccccc3)CC2)cc1 (stereo unspecified) | 8
COc1ccccc1C(=O)Nc1cc2cc(Br)ccc2oc1=O | 7
Cc1ccc(NC(=S)NCc2ccccc2Cl)c(C)c1 | 21
CC(/C=C/c1ccc(N(C)C)cc1)=N\N=C1\NC(=O)CC(C(=O)Nc2ccccc2)S1 (stereo unspecified) | -14

Four entries picked at random from the list so far:
SMILES | Biofilm kill mix
Cc1ccc(NC(=S)NCc2ccccc2Cl)c(C)c1 | 21
Nc1nnc(C(F)(F)F)s1 | 9
COc1ccccc1C(=O)Nc1cc2cc(Br)ccc2oc1=O | 7
COc1ccc(C=O)cc1OC(=O)C1(C)Cc2ccccc2C(=O)O1 (stereo unspecified) | 0

Five entries from above in a different format.
molecule	Biofilm kill mix
Cc1ccccc1CS(=O)(=O)c1ccc(C(=O)N2CCC(C)CC2)cc1[N+](=O)[O-]	17
O=c1[nH]nc(-c2ccc(F)cc2)cc1Cc1ccccc1	14
CCOC(=O)c1ccc(CNC(=O)Cn2nnc(-c3cccc(C)c3)n2)o1	20
S=c1[nH]nc(-c2ccc3ccccc3n2)n1Cc1ccccc1	7
O=C(CC1C(=O)NCCN1Cc1cccc(Oc2ccccc2)c1)NCCc1ccncc1 (stereo unspecified)	21

Continued.
SMILES | Biofilm kill mix
CSCCC(Nc1ccc(S(=O)(=O)N2CCOCC2)cc1[N+](=O)[O-])C(=O)OCC(=O)N(C(C)C)C(C)C (stereo unspecified) | 11
N#CCCN(Cc1ccccc1)C(=O)Nc1ccccc1 | 19
CCCCC(=O)Nc1cc(-c2nc3ncccc3o2)ccc1C | 13
CCOc1ccc(NC(=NCc2ccc3c(c2)OCO3)SC2CC(=O)N(c3ccc(OCC)cc3)C2=O)cc1 (stereo unspecified) | 14
C=CCN1C2CCCC1CC(NC(=S)Nc1cccc(OC)c1)C2 (stereo unspecified) | -1
COc1ccccc1-c1c(C(F)(F)F)oc2cc(OCC(=O)Nc3ccccc3C(F)(F)F)ccc2c1=O | 10
CC1=NN(c2ccccc2)C(=O)C1N=Nc1ccc(S(N)(=O)=O)cc1 (stereo unspecified) | 10
O=C(Nc1ccc(Cc2ccncc2)cc1)C1CCC(N2C(=O)C3CCCCC3C2=O)CC1 (stereo unspecified) | 20
COc1ccc(/C=N/N2C(=O)C3C4C=CC(C4)C3C2=O)cc1[N+](=O)[O-] (stereo unspecified) | 4
COc1ccc(CCNC(=O)CSc2ccc(-c3ccco3)nn2)cc1OC | 17
C/C(=N\NC(=O)c1ccncc1)c1cc2ccccc2o1 | 13
CCOc1ccc(NC(=O)CC2C(=O)N(c3cccc(OC)c3)C(=O)N2C(C)C)cc1 (stereo unspecified) | 1
COc1ccc(NC(=O)CSc2cccc3cccnc23)c(OC)c1 | -19
CCc1nn2c(=O)cc(COc3ccc(/C=C4\C(=N)N5N=C(C)SC5=NC4=O)cc3)nc2s1 | 14
COCCOC(=O)c1c(C)oc2ccc(NS(=O)(=O)c3ccc(C(=O)O)cc3)cc12 | 7
c1ccc(C2[C@H]3CN(Cc4cccnc4)[C@H](c4ccccc4)C34CC2(c2ccccc2)C4)cc1 (stereo partly specified) | 16
CCOC(=O)Cc1nn(CC)c(=O)c2ccccc12 | 19
COc1ccc(C2=Nn3c([n+](C)c4ccccc43)SC2)cc1 | 61
c1ccc2c(c1)CCCN2c1nc(N2CCOCC2)nc(N2CCOCC2)n1 | 12
O=C(OCC1CC(c2ccccc2Cl)=NO1)c1ccc(Br)cc1 (stereo unspecified) | 15
CCOC(=O)c1c(C)[nH]c(C(=O)CN2C(=O)C(=O)N(CC(C)C)C2=O)c1C | 6
O=C(O)/C=C/c1ccc(S(=O)(=O)N(CCO)CCO)cc1 | 30
CCN(CC)CCCNC(=S)N1CCn2c(nc3ccccc32)C1 | 12
O=c1cc(CN2CCCCCC2)nc2sccn12 | -14
CS(=O)(=O)NNC(=O)c1csc(Cc2c(Cl)sc3ccc(Cl)cc23)n1 | 23
Next section
SMILES | Biofilm kill mix
CC(=O)Nc1ccc(/C=N/NC(=O)c2cc(-c3ccco3)nc3ccccc23)cc1 | 23
COc1cc2c(cc1OC)CN(C(=O)/C=C/c1cccs1)CC2 | 18
CCOc1ncccc1C(=O)Nc1ccc(-c2ccc3nnc(C)n3n2)cc1 | 15
Cc1[nH]nc2c1C(c1cccs1)C1=C(CC(C)(C)CC1=O)N2 (stereo unspecified) | 17
COc1cc(-c2nc3ccc(N4CCN(C)CC4)cc3[nH]2)cc(OC)c1OC | 8
COC(=O)c1ccc(C23CC4(C2)[C@H](CN(CC2CCCCC2)[C@@H]4c2ccccc2)C3c2ccc(C(F)(F)F)cc2)cc1 (stereo partly specified) | 15
S=c1[nH]cnc2scc(-c3ccccc3)c12 | 13
COc1ccccc1OCCCC(=O)Nc1nccs1 | 6
CC1=NN(C(C#N)c2ccc(F)cc2)C(C)(C)C1 (stereo unspecified) | 12
CCCn1c(SCC(=O)NCc2ccc(OC)cc2)n[nH]c1=O | 13
CC1CCCC(NC(=O)COC(=O)CN2C(=O)C3CCCCC3C2=O)C1C (stereo unspecified) | 15
CS(=O)(=O)c1ccc(Cl)c(NC(=O)Cc2c(Cl)cccc2Cl)c1 | 12
Cc1ccc2c(c1)C(=O)CC(O)(C(F)F)O2 (stereo unspecified) | 30
CC(C)CCNC(=O)c1ccc(Cl)c(N)c1 | -28
O=[N+]([O-])c1cc(C(F)(F)F)ccc1N1CCN(CCO)CC1 | 18
NS(=O)(=O)c1cccc(NC(=O)CN2CCC(Cc3ccccc3)CC2)c1 | 17
Cc1cc(C)c2nc(SCC(=O)NCC3CCCO3)c(C#N)cc2c1 (stereo unspecified) | 18
Cc1ccnc(NS(=O)(=O)c2ccc(NC(=O)c3cc(-c4ccccc4)nc4ccccc34)cc2)n1 | 9
O=C(c1cc(N2C(=O)C3C4CCC(C4)C3C2=O)ccc1Cl)N1CCCCCC1 (stereo unspecified) | 5
CCOC(=O)C1CCN(C(=O)Nc2c(-c3ccccc3)noc2C)CC1 | 7
CCn1c(=O)[nH]c2cc(C(=O)Nc3cc(C)cc(C)c3)ccc2c1=O | 11
O=C(CN1N=C(c2ccccc2)CCC1=O)NCc1ccccc1 | 12
CC/C(=N\NC(=O)c1ccccc1Cl)c1ccc(Br)s1 | 15
N#Cc1c(N2CCCCC2)nc(N)c2c(N)nc3c(c12)CC(CCl)O3 (stereo unspecified) | 6
Cc1ccc(C(=O)NCc2ccccc2)c(F)c1F | -4
Additional compounds follow:
SMILES | Biofilm kill mix
Cc1cc(C)n(-c2nc(O)cc(=O)[nH]2)n1 | 11
CC(C)OC(=O)C(C)Nc1n[nH]c(=S)[nH]c1=O (stereo unspecified) | 21
Cc1cc(C)c(C(=O)CSc2n[nH]c(-c3ccncc3)n2)c(C)c1 | 2
COc1ccc(NC(=O)c2ccco2)cc1S(=O)(=O)N1CCOCC1 | 27
CCOC(=O)c1ccc(NC(=O)CSc2nnc(CNc3ccc(C)cc3)n2C)cc1 | 23
COC(=O)c1ccc(COc2ccc(/C=N/NC(=O)C(=O)Nc3ccc(OC)cc3)cc2OC)o1 | 26
COc1ccc(Br)cc1/C=C/C(=O)Nc1ccc2ccccc2c1 | 16
CCn1cc(CN2CCCC(C(=O)c3ccc(-c4ccccc4)cc3)C2)cn1 (stereo unspecified) | 19
CCn1nc(C)c(CNC(=O)CCc2nnc(Cc3c[nH]c4ccccc34)o2)c1C | -10
CC(C)Cc1cc(C(=O)N2CCC(N3CCC(C(=O)NC4CC4)CC3)CC2)n[nH]1 | 3
O=C(O)/C=C/c1ccccc1[N+](=O)[O-] | 11
CC1CCN(C(=O)CSc2ccc(-c3cccc([N+](=O)[O-])c3)nn2)CC1 | 20
O=C(O)c1ccc(/C=N/O)cc1 | 20
O=C(Nc1nc(-c2ccccc2)cs1)c1ccc(N2CCOCC2)c([N+](=O)[O-])c1 | 10
C(=N\NCc1ccccc1)/c1ccc2nccnc2c1 | 19
COc1ccc(C(=O)c2cnc[nH]2)cc1 | 21
CCCC(=O)Nc1ccc2oc(=O)ccc2c1 | 14
Cc1[nH]c2ccccc2c1C(=O)CSc1nncn1C | 8
CCOC(=O)C1CCN(C(=O)CCc2c(C)nc3cc(-c4ccc(OC)cc4OC)nn3c2C)CC1 | 16
COc1ccccc1CN(C(=O)CCl)C(C(=O)NC1CCCCC1)c1ccncc1 (stereo unspecified) | 16
CC(=O)N1CCOCCOCCN(C(C)=O)CCOCC1 | 5
NS(=O)(=O)c1ccc2c(c1)oc(=O)c1cc(S(N)(=O)=O)ccc12 | 25
OCCN(CCO)CC(O)COc1ccc(C23CC4CC(CC(C4)C2)C3)cc1 (stereo unspecified) | 19
COc1ccc(C(=O)Nc2nnc(CCS(=O)(=O)c3ccc(C)cc3)s2)cc1 | 7
COc1cc(NC(=O)COC(=O)C=C(C)C)c(C)cc1[N+](=O)[O-] | 11
(further entries)
SMILES | Biofilm kill mix
COc1cc(CC(=O)OCC(=O)NC2CCCCC2)cc(OC)c1OC | 9
O=C(N=Nc1c(O)[nH]c2ccc([N+](=O)[O-])cc12)c1ccccc1Cl | 13
CC(=O)C1=C(O)C(=O)N(CCC(=O)O)C1c1ccccc1[N+](=O)[O-] (stereo unspecified) | 17
COc1ccccc1Nc1nnc(SCc2cc(=O)n3cc(C)ccc3n2)s1 | 22
COc1ccc(/C=N\NC(=O)CNC(=O)C(c2ccccc2)c2ccccc2)cc1[N+](=O)[O-] | 8
CNC(=O)NC(=O)CSc1nc(-c2cccs2)c(C#N)c(=O)[nH]1 | 3
CCCN1Cc2cccc(C(=O)Nc3ccc(CN4CCCC4)cc3)c2C1=O | 18
Cc1ccc(S(=O)(=O)N2CCOC2CNC(=O)C(=O)NCCc2ccccc2)cc1 (stereo unspecified) | 17
CCN(CC)S(=O)(=O)c1ccc2c(c1)nc(CCC(=O)Nc1ccc3c(c1)OCO3)n2C | 6
O=C(Cn1cnc(Cl)c1Cl)c1ccccc1 | 9
C=C1C(=O)[C@@]23[C@H](O)C[C@@H]4C(C)(C)CC[C@H](O)[C@@]4(C)[C@@H]2CC[C@@H]1[C@H]3O | 8
Cc1nn(-c2ccccc2)c(/N=C/c2ccc(O)cc2)c1-c1ccccc1 | 8
O=C(CN1C(=O)NC(Cc2c[nH]c3ccccc23)C1=O)Nc1cccc(S(=O)(=O)N2CCOCC2)c1 (stereo unspecified) | 8
O=C(c1ccccc1)N1CCN(c2ccc([N+](=O)[O-])c(NCc3cccnc3)c2)CC1 | 10
Cc1cccc2c(C(=O)Nn3cnnc3)cc(-c3ccccc3Cl)nc12 | 32
Cc1ccc(-c2nn(-c3cccc(F)c3)cc2CNCCc2ccncc2)o1 | 15
Cc1nn(CCOc2cccc(Br)c2)c(C)c1[N+](=O)[O-] | 15
CC(=O)NC(=S)Nc1sc2c(c1C(N)=O)CCC(C)C2 (stereo unspecified) | 34
